Assay outcomes: PubChem BioAssay, several laboratories
UCH37 inh: inhibitors of human deubiquitinating enzyme UCH37 | inhibition, % (no concentration beside the values) | purified proteasome/UCH37, Ub-AMC cleavage fluorescence | 330,000 compounds, 0.33% hits;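 active means mean of two replicates above 20%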;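 further: 0% = compound-free wells with enzyme and 100% = wells lacking proteasome; stock transfer was 100 nL into about 20 µL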
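Material: Human UCH37 enzyme supplied as purified proteasome complex | Schedule: 30 min preincubation with enzyme, 25 min cleavage at room temperature | Detection: AMC fluorescence 355/460 nm | Measure: % inhibition of Ub-AMC cleavage fluorescence | Controls: Wells without proteasome as full block, compound-free enzyme plus substrate as uninhibited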
MLL AF4-AF9 inh: MLL-AF4/AF9 protein interaction inhibition; P42568; AlphaScreen, biotin-AF4 peptide binding to FLAG-AF9; inhibition, % at 10 µM; 350,000 compounds, 0.47% hits; AID 651704;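 active means every replicate reaching a set inhibition limit, whatever the replicate mean, cut at about 25% in these data; inconclusive means mean inhibition reaches that limit but some replicates miss it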;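 further: 0% = plate neutral control median and 100% = total signal loss; the record names both 10 and 1 µM as test concentration; the first replicate is given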
Target sequence (P42568 whole entry, looked up): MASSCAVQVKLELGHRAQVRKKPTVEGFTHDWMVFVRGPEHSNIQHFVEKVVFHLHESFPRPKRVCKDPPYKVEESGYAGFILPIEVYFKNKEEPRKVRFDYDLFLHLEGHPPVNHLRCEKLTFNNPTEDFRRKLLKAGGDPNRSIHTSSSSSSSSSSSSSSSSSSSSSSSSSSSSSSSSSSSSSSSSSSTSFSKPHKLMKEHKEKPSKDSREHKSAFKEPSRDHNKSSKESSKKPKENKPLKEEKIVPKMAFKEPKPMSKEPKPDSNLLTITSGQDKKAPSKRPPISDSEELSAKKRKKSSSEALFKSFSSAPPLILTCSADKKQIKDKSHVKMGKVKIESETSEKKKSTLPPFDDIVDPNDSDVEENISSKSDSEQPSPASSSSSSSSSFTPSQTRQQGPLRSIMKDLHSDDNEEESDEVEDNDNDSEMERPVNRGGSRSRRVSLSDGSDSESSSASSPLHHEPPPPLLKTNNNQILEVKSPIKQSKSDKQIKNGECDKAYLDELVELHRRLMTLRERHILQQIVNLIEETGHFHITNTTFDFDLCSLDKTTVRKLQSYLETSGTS
FGF22 binding: FGF22 (human) thermal shift binding | Q9HCT0 | recombinant FGF22 thermal shift, SYPRO orange fluorescence; percent of sucrose octasulfate shift, DMSO zero | calls only at 9.99 µM | 340,000 compounds, 1.5% hits | AID 651658;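 active means melting point raised past a set limit in the mean and every replicate; inconclusive means no clear call; three in four hits are not shown here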
Target sequence (Q9HCT0 whole entry, looked up): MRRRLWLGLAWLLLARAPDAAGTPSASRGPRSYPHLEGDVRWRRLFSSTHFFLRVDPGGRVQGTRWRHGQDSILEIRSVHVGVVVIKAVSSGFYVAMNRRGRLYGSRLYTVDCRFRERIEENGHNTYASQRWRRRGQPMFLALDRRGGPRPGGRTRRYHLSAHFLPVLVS
rRNA inh HTS: inhibits bacterial ribosomal RNA function over humanized ribosomes; 350,000 compounds, 1.6% hits; E. coli WT GFP vs humanized-ribosome RFP mutants, fluorescence, 24 h; stronger effect = lower value; DMSO median 0, no signal -100; GFP signal change (wild-type ribosome), % (concentration not given with the values);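 active means significant combined selectivity score with lowered wild-type GFP, culture density cut under 30%, mutant RFP and density less affected; inactive means any of these conditions unmet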; further: one replicate is shown; some compounds called inactive have numbers as strong as hits
T cruzi inh: T. cruzi replication inhibition; 300,000 compounds, 1.4% hits; AID 1885; T. cruzi beta-gal in NIH3T3, luminescence, 90 h; inhibition, % (concentration not given with the values);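 active means mean inhibition across valid replicates above about 55%, limit read from the data; inconclusive means mean below that limit but half or more replicates reach it; inactive means mean below it, under half of replicates reach it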;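 further: signal also drops with host cell toxicity which is not excluded here; 0% = plate median of DMSO wells and 100% = zero luminescence signal; higher percent means less beta-gal luminescence so fewer parasites; stock transfer was 50 nL into about 50 µL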
Beta apoptosis: blocks beta cell apoptosis. protection from apoptosis, % (concentration not given with the values). 300,000 compounds, 0.8% hits. INS-1E cytokine-induced death, ATP luminescence, 48 h; percent of positive-control rescue, neutral wells zero;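 active means all replicates at 75% or more, or half of them and the mean; inconclusive means half reach 75% but not the mean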;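 further: 0% = cytokine-treated negative control wells and 100% = positive control rescue; higher means more ATP so stronger rescue from cytokine killing; wells of about 40 µL received 100 nL stock; the first replicate is given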
A1 inh: inhibitors of the anti-apoptotic protein A1, read as caspase activation; MEF A1-2A-BIM cells, Caspase-Glo 3/7 luminescence, 3 h; percent of clofoctol response, vehicle zero; caspase activation, % (no concentration beside the values); 330,000 compounds, 0.066% hits; AID 2462;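 active means over half of replicate activation scores above 10%, or exactly half above 10 with the replicate mean above 10; inconclusive means replicate mean below 10 yet half the replicates above 10; inactive means over half of replicates below 10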;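 further: wells of about 30 µL received 50 nL stock; many hits fall short of the cut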
Ecoli growth: blocks Escherichia coli growth; OD600, 23 h; stronger effect = lower value; OD600 absorbance (concentration not given with the values); 330,000 compounds, 0.21% hits;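 active means OD600 absorbance below the run mean of sample wells minus 3.6 SD, in any replicate, cut at about 0.56 in these data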;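 further: stock transfer was 300 nL into about 60 µL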
rRNA inh HTS OD600: recorded beside rRNA inh HTS, whose call it bears; OD600 change, %; measured here: OD600 growth;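 optical density of the mix in the first replicate; 0 = DMSO median and -100 = no signal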
rRNA inh HTS RFP: second read-out of rRNA inh HTS, no call of its own (marks repeat the call); RFP signal change, %; measured here: RFP humanized mutant strains;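 first replicate; 0 = DMSO median and -100 = no signal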
The depositor's hits bear a star; i = inactive; ? = inconclusive; . = not tested or not shown. This is a subset; the hit share may differ from the screen's.

entry	compound	UCH37 inh	MLL AF4-AF9 inh	FGF22 binding	rRNA inh HTS	rRNA inh HTS OD600	rRNA inh HTS RFP	T cruzi inh	Beta apoptosis	A1 inh	Ecoli growth
1	Cc1noc(C)c1S(=O)(=O)N(C)C[C@H]1Oc2ccc(NC(=O)NC(C)C)cc2C(=O)N([C@H](C)CO)C[C@@H]1C	1.0	3.3	i	6	3	-4.5	.	-3	-0.2	0.71
2	CC(C)(C)NC(=O)COC(=O)c1snc(C(=O)NC2CCCCC2)c1N	-118	.	.	.	.	.	-11	-7	0.0	0.68
3	COc1ccc(C(=O)CN2C(=O)c3ccccc3C2=O)c(OC)c1	2.0	0.3	i	11	15	2.3	-17	-8	0.1	0.72
4	Cn1ncc2c(Nc3ccc([N+](=O)[O-])cc3)nc(Cl)nc21	1.9	-25	i	-5	9	-3.0	-11	9	1.7	0.68
5	O=C(NCc1ccccc1Cl)c1cc2c(s1)CS(=O)(=O)C2	8.4	-1.0	i	7	14	3.8	-16	-5	0.2	0.68
6	CCOc1ccccc1Nc1nc(-c2cccnc2)cs1	4.1	-1.0	i	-39	-52	-18	10	-7	1.3	0.61
7	Cc1noc(C)c1CC(=O)Nc1ccc2c(c1)OCO2	0.3	-14	i	5	11	-0.4	.	.	.	0.69
8	COc1ccc(-c2nc(N)nc(N)n2)c(O)c1	1.8	-1.2	i	-7	-7	-0.9	.	-24	-3.9	0.63
9	Cc1ccc(Nc2nc(N)nc(CSc3nc(C)cc(C)n3)n2)cc1	-0.8	.	.	.	.	.	3	-11	0.9	0.72
10	Cc1ccc(NS(=O)(=O)c2ccc(C(=O)NCCCN3CCCC3=O)cc2)cc1	3.2	7.9	i	2	-2	1.6	-5	0	0.9	0.62
11	COc1ccc(C2(O)C(=O)Nc3ccc(C)cc32)cc1 (centres undefined)	0.1	-1.1	i	7	4	-0.9	-4	.	0.2	0.63
12	COc1ccc(N=C2C(=O)Nc3c(C)cccc32)cc1	-2.5	.	.	.	.	.	4	6	-0.3	0.74
13	c1ccc(-n2cnnc2SCc2nc3ccccc3s2)cc1	-2.3	.	.	.	.	.	-1	-5	-4.3	0.68
14	CC(=O)c1cccc(NC(=O)N2CCC(NC(=O)C3CCCCC3)CC2)c1	7.4	13	i	6	7	-1.6	1	-6	-0.6	0.66
15	Cc1sc2nc(CSC(C)C(=O)Nc3cc(S(C)(=O)=O)ccc3Cl)[nH]c(=O)c2c1C (centres undefined)	-0.6	-0.8	i	5	-2	0.1	3	4	-0.5	0.67
16	N=C(N)SCc1cccc2ccccc12	5.3	.	.	.	.	.	-9	-4	-1.0	0.7
17	O=C(CCn1c(=O)[nH]c2ccsc2c1=O)N1CCc2ccccc2C1	2.3	.	.	.	.	.	1	-5	-0.8	0.71
18	CCN1CCN(C(c2ccccc2OC)c2nnnn2C2CCCCC2)CC1 (centres undefined)	4.8	.	.	.	.	.	5	-2	-1.0	0.71
19	Cc1ccc(-c2cc(C(F)(F)F)c(C#N)c(=O)[nH]2)cc1	i	.	.	.	.	.	0	-8	-3.3	0.73
20	O=C(NCC(c1ccco1)N1CCN(c2ccccc2)CC1)OCc1ccccc1 (centres undefined)	4.5	4.4	i	-17	-29	-9.2	12	-2	0.5	0.64
21	C/C=C/c1cc(CN2CCN(c3ccccc3)CC2)c(O)c(OC)c1	5.1	4.3	.	14	11	-1.3	0	5	-0.2	0.66
22	CCN1CCN(CCC(=O)Nc2ccc(Br)c(C)c2)CC1	5.7	0.6	i	15	6	0.6	?	-4	0.6	0.68
23	CC(=O)Nc1ccccc1C(=O)C(=O)Nc1cccc(C(=O)NCc2ccc(C)cc2)c1	1.9	-1.5	i	-17	-5	30	-26	1	1.1	0.58
24	CCC1CC(=O)CCN1S(=O)(=O)c1ccc(C)cc1 (centres undefined)	3.8	-3.1	i	6	8	0.6	.	.	.	0.68
25	CC/C(=N\NC(=O)COc1ccc(Br)cc1)c1ccc(OC)c(OC)c1	.	-2.4	i	-10	0	-0.2	-9	1	-0.9	.
26	NS(=O)(=O)c1ccc(CCNC(=O)COC(=O)c2nc(Cl)ccc2Cl)cc1	4.5	-0.1	i	14	20	2.4	.	1	1.2	0.72
27	O=c1c2ccccc2c(C=NCCc2ccccc2)c(O)n1Cc1ccccc1	7.1	.	.	.	.	.	23	-2	-0.8	0.77
28	CCN(CC)c1ccc(/C=C/c2cc(-c3ccccc3)c3ccccc3n2)cc1	-87	-29	i	10	15	28	25	4	1.2	0.69
29	Cc1ccccc1CN1[C@@H](CC2CCCCC2)COCCS1(=O)=O	-0.8	-1.1	i	-33	-47	4.5	19	-6	0.6	.
30	CC(=O)c1cnc2c(-c3ccccc3)cnn2c1C	1.1	.	.	.	.	.	-4	-6	0.0	0.69
31	Cc1c(O)ccc(/C=N/Nc2nc(-c3cccnc3)nc3ccccc23)c1O	.	4.4	i	-2	5	11	56*	24	-0.4	.
32	CC(=NNC(=O)c1cc(C)nc2ccccc12)c1ccc(N2CCOCC2)cc1	6.2	-1.0	i	-1	14	-3.7	.	-3	-0.1	0.7
33	CNC(=S)N(CCc1c(C)[nH]c2ccc(OC)cc12)Cc1cc(OC)c(OC)c(OC)c1	4.9	0.9	i	-4	-6	-1.8	2	.	-0.1	0.76
34	CCCCN(C(=O)c1cc2c(s1)CCC2)c1c(N)n(CCC)c(=O)[nH]c1=O	-1.4	-2.4	i	11	6	0.3	.	.	.	0.67
35	CC(C)(C)C(=O)Nc1ccc(C(=O)COC(=O)c2ccccn2)cc1	3.1	-0.4	i	4	3	-3.8	.	-4	0.6	0.69
36	CN(CC(=O)Nc1ccc(N2CCOCC2)cc1)C(=O)CSc1ccc(F)cc1	2.6	-1.9	i	8	-1	-0.6	1	2	0.5	0.71
37	COc1cc(OC)c2cc(C(=O)N[C@@H](Cc3ccccc3)C(=O)O)n(C)c2c1	-6.3	-1.6	i	1	3	0.1	-8	1	-0.4	0.66
38	O=C(NC1CCCC1)C(c1ccc(N2CCOCC2)cc1)N(Cc1ccco1)C(=O)c1ccco1 (centres undefined)	-2.5	.	.	.	.	.	3	-1	-0.4	0.78
39	Cc1ccc(S(=O)(=O)N(Cc2c(F)cccc2Cl)C(=O)N2CCN(C)CC2)cc1	2.0	-19	i	1	4	-0.6	-3	.	1.5	0.64
40	Cc1ccc2[nH]c3c(N4CCN(Cc5ccccc5)CC4)ncnc3c2c1	-47	.	.	.	.	.	-1	69	-0.9	0.62
41	CN(C)c1ccc(NC(=O)c2ccc(COc3cccc(Cl)c3)o2)cc1	-0.4	.	.	.	.	.	30	10	0.2	0.74
42	N#Cc1ccc(N2CCN(c3ccc(F)cc3)CC2)cc1	1.3	.	.	.	.	.	-5	14	-0.1	0.72
43	O=C(c1ccc([N+](=O)[O-])cc1[N+](=O)[O-])n1cnc2ccccc21	5.0	-3.3	i	8	8	2.0	25	-10	-0.3	0.65
44	O=S(=O)(c1ccc2c(c1)OCCO2)N1CCC(c2nc3ccccc3s2)CC1	-2.0	-8.2	i	15	9	-3.9	13	6	0.4	0.75
45	Cn1cnnc1SCC(=O)c1ccc(OC(F)F)cc1	3.6	-10	i	6	12	-2.4	5	0	0.4	0.65
46	CCOCCCN1CC(=O)N2[C@@H](Cc3c([nH]c4ccccc34)C2(C)C)C1=O	1.8	-7.3	i	2	17	-0.2	-1	-1	0.4	0.62
47	CC(C)OC(=O)c1c(-c2ccc(C(C)C)cc2)csc1NC(=O)C1CCCO1 (centres undefined)	3.5	.	.	.	.	.	-4	14	0.1	0.72
48	COCCCNC(=S)Nc1cccc2ncccc12	3.2	0.9	i	-4	-5	6.0	-7	-11	0.0	0.66
49	O=c1[nH]c2ccc(S(=O)(=O)N3CCCCC3)cc2[nH]1	5.8	-13	i	10	3	-1.2	-3	-1	-0.2	0.69
50	Cc1nn(-c2ccccn2)c2c1C(c1ccncc1)C1=C(CC(C)(C)CC1=O)N2 (centres undefined)	-203	-6.6	i	.	.	.	19	5	-0.8	0.64
51	O=C1NC(c2ccccc2)=C(c2nc3ccccc3s2)C(c2ccc(O)cc2)N1 (centres undefined)	-5.8	.	.	.	.	.	23	0	-1.2	0.66
52	CCCNC(=O)COc1nc2ccccc2nc1N1CCOCC1	6.2	3.2	i	-10	-7	-9.4	-13	1	0.1	0.68
53	CCOc1ccc(OCCOCCN2CCCC2)cc1	0.9	4.1	i	12	6	-0.6	22	-10	-0.2	0.67
54	CSc1ncccc1C(=O)OCC(=O)c1ccc(S(=O)(=O)N2CCCCC2)cc1	.	-9.7	i	-2	-4	1.2	7	-2	-1.1	.
55	COc1cccc(CCNC(=O)CCc2nnc(-c3ccc4c(c3)OCO4)o2)c1	4.3	-4.2	i	-3	-6	2.4	13	0	-0.9	0.66
56	COC(=O)c1nn(-c2cccc(C)c2)c2nnc(Cc3ccccc3)c(=O)n12	1.4	.	.	.	.	.	-7	0	-1.5	0.69
57	CC1=C/C(=C(\c2ccc(O)c(C)c2)c2ccccc2S(=O)(=O)O)C=CC1=O	.	7.9	i	-2	35	-7.5	-4	-7	0.1	.
58	CCCCNC(=S)Nc1ccc(-c2nc3ccc(C)cc3s2)cc1	-94	1.7	i	-11	-3	3.0	25	1	0.6	0.72
59	CCCCC(CC)C(=O)Nc1ccc(Nc2ccccc2)cc1 (centres undefined)	3.6	.	.	.	.	.	20	-1	1.2	0.67
